Screening results from PubChem BioAssay.
Beta apoptosis – inhibitors of cytokine-induced beta cell apoptosis, primary screen, luminescence; AID 435005, 2010; 300,000 compounds, 0.8% hits; protection from apoptosis, % (concentration not given with the values); INS-1E cytokine-induced death, ATP luminescence, 48 h; percent of positive-control rescue, neutral wells zero;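 active = all replicates at 75% or more, or half of them and the mean; inconclusive = half reach 75% but not the mean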;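 also: 0% = cytokine-treated negative control wells and 100% = positive control rescue; higher means more ATP so stronger rescue from cytokine killing; wells of about 40 µL received 100 nL stock; the first replicate is given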
MLL AF4-AF9 inh – inhibitors of AF4 peptide binding to AF9, primary screen, biochemical, AlphaScreen, biotin-AF4 peptide, FLAG-AF9, single point. 350,000 compounds, 0.47% hits. inhibition, % at 10 µM;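 active = every replicate reaching a set inhibition limit, whatever the replicate mean, cut at about 25% in these data; inconclusive = mean inhibition reaches that limit but some replicates miss it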;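 also: 0% = plate neutral control median and 100% = total signal loss; the record names both 10 and 1 µM as test concentration; the first replicate is given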
Target sequence (P42568 whole entry, looked up): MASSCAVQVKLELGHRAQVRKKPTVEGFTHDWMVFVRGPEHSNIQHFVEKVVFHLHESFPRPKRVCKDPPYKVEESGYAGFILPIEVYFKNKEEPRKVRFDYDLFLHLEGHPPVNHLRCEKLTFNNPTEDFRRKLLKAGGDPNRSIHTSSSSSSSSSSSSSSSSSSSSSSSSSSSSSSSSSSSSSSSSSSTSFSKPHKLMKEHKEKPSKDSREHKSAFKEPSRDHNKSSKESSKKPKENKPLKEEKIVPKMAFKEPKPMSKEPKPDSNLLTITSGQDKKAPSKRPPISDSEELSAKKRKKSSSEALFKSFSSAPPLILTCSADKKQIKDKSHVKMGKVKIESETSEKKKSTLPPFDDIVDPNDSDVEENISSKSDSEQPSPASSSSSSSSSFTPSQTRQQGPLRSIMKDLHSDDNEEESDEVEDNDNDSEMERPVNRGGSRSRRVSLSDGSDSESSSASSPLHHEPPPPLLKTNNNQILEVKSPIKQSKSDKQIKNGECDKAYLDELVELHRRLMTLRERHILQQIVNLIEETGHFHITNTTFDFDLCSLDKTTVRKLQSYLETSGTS
T cruzi repl – inhibitors of intracellular T. cruzi growth, primary screen, luminescence, NIH3T3 host cells; T. cruzi beta-gal in NIH3T3, 90 h; inhibition, % (concentration not given with the values); 300,000 compounds, 1.4% hits;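 active = mean inhibition across valid replicates above about 55%, limit read from the data; inconclusive = mean below that limit but half or more replicates reach it; inactive = mean below it, under half of replicates reach it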;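 also: signal also drops with host cell toxicity which is not excluded here; 0% = plate median of DMSO wells and 100% = zero luminescence signal; higher percent means less beta-gal luminescence so fewer parasites; stock transfer was 50 nL into about 50 µL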
Calb FLC – C. albicans growth inhibition with fluconazole, primary screen, CaCi-2 strain, Alamar Blue fluorescence; AID 1979, 2009; C. albicans CaCi-2 (fluconazole-resistant clinical isolate) + fluconazole, 48 h; growth inhibition, % (no concentration beside the values); 300,000 compounds, 0.57% hits;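 active = most replicates above 75%; inconclusive = exactly half above 75%; inactive = most below 75%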;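 also: all wells also contain fluconazole at 8 µg/ml as a sub-toxic cotreatment; 0% = median of DMSO wells and 100% = median of geldanamycin control wells; wells of about 8 µL received 7.5 nL stock; the first replicate is given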
rRNA inh HTS – reduced GFP signal of wild-type E. coli, primary screen, bacterial rRNA inhibitor project, GFP/RFP fluorescence, OD600, single point; E. coli WT GFP vs humanized-ribosome RFP mutants, 24 h; stronger effect = lower value; DMSO median 0, no signal -100; GFP signal change (wild-type ribosome), % (no concentration beside the values); 350,000 compounds, 1.6% hits;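 active = significant combined selectivity score with lowered wild-type GFP, culture density cut under 30%, mutant RFP and density less affected; inactive = any of these conditions unmet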; also: one replicate is shown; some compounds called inactive have numbers as strong as hits
ALR H2O2 inh – inhibitors of human ALR sulfhydryl oxidase, primary screen, biochemical, H2O2 detection, HRP-luminol luminescence, single point | 290,000 compounds, 3.8% hits | FAD-linked sulfhydryl oxidase ALR (Homo sapiens), P55789 | AID 485317, 2010 | purified ALR, DTT oxidation | inhibition, % (concentration not given with the values);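 active = mean and each replicate at 75% or more; inconclusive = only one of the two met; inactive = neither met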;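 also: stock transfer was 7.5 nL into about 7.5 µL; 0% = neutral wells and 100% = wells with inactivated enzyme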
Target sequence (P55789 whole entry, looked up): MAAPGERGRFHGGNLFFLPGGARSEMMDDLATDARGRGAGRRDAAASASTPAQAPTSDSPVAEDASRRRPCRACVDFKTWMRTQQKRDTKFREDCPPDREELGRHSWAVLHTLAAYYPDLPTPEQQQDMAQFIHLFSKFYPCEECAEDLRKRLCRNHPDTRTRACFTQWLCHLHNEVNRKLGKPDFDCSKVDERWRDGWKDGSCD
FGF22 binding – binders of human FGF22 protein, primary screen, FGF22 synaptogenesis inhibitor project, biophysical, thermal shift, single point; AID 651658, 2012; 340,000 compounds, 1.5% hits; Fibroblast growth factor 22 (Homo sapiens), Q9HCT0; calls only at 9.99 µM; recombinant FGF22 thermal shift, SYPRO orange fluorescence; percent of sucrose octasulfate shift, DMSO zero;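 active = melting point raised past a set limit in the mean and every replicate; inconclusive = no clear call; three in four hits are not shown here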
Target sequence (Q9HCT0 whole entry, looked up): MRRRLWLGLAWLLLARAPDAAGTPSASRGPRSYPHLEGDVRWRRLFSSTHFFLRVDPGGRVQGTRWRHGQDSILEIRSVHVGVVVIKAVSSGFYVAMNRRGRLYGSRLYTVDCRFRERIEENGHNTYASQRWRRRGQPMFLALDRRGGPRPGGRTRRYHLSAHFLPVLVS
RanGTP-Impb inh – inhibitors of RanGTP-importin-beta interaction, primary screen, biochemical, FRET, CFP-Ran, YFP-importin-beta, homogeneous | cell-free CFP-Ran/YFP-importin-beta FRET ratio | inhibition, % (no concentration beside the values) | 300,000 compounds, 1.1% hits;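 active = most replicates above 15%; inconclusive = exactly half above 15%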;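 also: 0% = DMSO wells and 100% = Ran loaded with GDP instead of GTP; wells of about 40 µL received 100 nL stock; the first replicate is given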
rRNA inh HTS OD600 – also measured in rRNA inh HTS; calls as there; OD600 change, %; measured here: OD600 growth;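 optical density of the mix in the first replicate; 0 = DMSO median and -100 = no signal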
rRNA inh HTS RFP – further read-out of rRNA inh HTS, marked with its call; RFP signal change, %; measured here: RFP humanized mutant strains;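 first replicate; 0 = DMSO median and -100 = no signal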
An asterisk follows results filed as active; i = inactive; ? = inconclusive; . = not tested or not shown.

SMILES	Beta apoptosis	MLL AF4-AF9 inh	T cruzi repl	Calb FLC	rRNA inh HTS	rRNA inh HTS OD600	rRNA inh HTS RFP	ALR H2O2 inh	FGF22 binding	RanGTP-Impb inh
O=C(CCn1ccc2ccccc21)NC1CCCc2ccccc21 (stereo not drawn)	3	.	8	7	.	.	.	.	.	-1.9
CCC(=O)Nc1ccc(-c2ccc(N3CCC(C)CC3)nn2)cc1	2	.	15	1	.	.	.	9	.	-1.7
Cc1ccc(S(=O)(=O)N(CC(=O)NCc2ccc(F)cc2)C(=O)N2CCN(C)CC2)cc1	.	-1.3	-7	0	5	3	0.3	-5	i	-3.7
CCOC(=O)C1CCN(C(=O)CC(C)c2ccccc2)CC1 (stereo not drawn)	2	.	1	3	.	.	.	-9	.	0.1
COc1cccc(C2CC3(CC(C)(C)NC(=S)N3)Oc3cc(O)ccc32)c1 (stereo not drawn)	.	.	-20	11	.	.	.	7	.	2.3
FC(F)(F)c1cnc(NNC(=S)Nc2cccnc2)c(Cl)c1	13	-5.4	9	-6	-34	-41	-7.8	40	i	.
Cc1ccc(NCC(=O)N/N=C/c2ccc(C(=O)O)cc2)cc1	-1	-36	-16	4	-5	-5	-12	-1	i	0.1
O=[N+]([O-])c1cc(C(F)(F)F)ccc1N1CCN(S(=O)(=O)c2ccc3c(c2)CCCC3)CC1	11	18	2	3	11	15	2.8	-3	i	-1.3
O=C(CSc1ccc(Br)c2cccc(Cl)c12)Nc1ccc(S(=O)(=O)Nc2nccs2)cc1	-5	-21	-28	-23	-3	-7	4.4	-6	i	-6.5
COc1cccc(OC)c1C(=O)N1CCN(Cc2ccncc2)CC1	-7	.	0	-3	.	.	.	-4	.	0.4
Cc1nnc(OC(C)C)c2nn(-c3ccccc3F)c(C)c12	-15	.	0	-7	.	.	.	-4	.	?
COc1cccc(/C=C/C(=O)OCC(=O)N2c3ccccc3NC(=O)C2(C)C)c1	-1	-1.1	-21	-9	.	.	.	-1	i	-1.9
O=c1[nH]c(C2CCN(S(=O)(=O)c3ccc4c(c3)OCCO4)CC2)nc2c1nnn2Cc1ccccc1F	2	-6.8	34	-7	-28*	-12*	5.0*	4	i	11
COc1cccc(C(=O)NC2CC(C)(C)NC(C)(C)C2)c1OC	-1	-3.5	0	-4	6	5	0.7	2	i	8.3
Cc1ccc(NC(=O)CCc2nnc3ccc(NCc4ccco4)nn23)nc1	-4	2.3	7	5	4	3	6.2	1	i	7.5
CCCCCN(C(=O)CCC(=O)OCC(=O)Nc1ccc(C)cc1F)c1c(N)n(CCCC)c(=O)[nH]c1=O	-4	0.7	12	3	4	6	3.2	-3	i	-1.4
CCCc1n(CC(O)COCC2CC=CCC2)c2ccccc2[n+]1C (stereo not drawn)	8	-1.5	23	-3	12	7	4.7	-7	.	1.2
Fc1ccccc1N=C1Nc2cccc3cccc1c23	3	9.5	-4	29	-5	-2	2.0	-18	i	5.7
CCc1[nH]nc(C(=O)N2CCCC(CCC(=O)N3CCN(c4ccccn4)CC3)C2)c1C (stereo not drawn)	-3	2.6	-5	-5	-2	1	0.0	-10	i	-1.8
CCCCC[C@H]1CN(CCc2ccccc2)C(=O)[C@@H]1CC(=O)NCc1ccc(OC)cc1	4	-2.4	28	15	-44	-73	-15	-30	i	1.1
CCC(C)NC(=O)c1ccc2c(c1)S(=O)(=O)c1ccccc1C2=O (stereo not drawn)	2	-1.1	-2	4	-3	-18	-2.2	-12	i	-10
Brc1cc2c(cc1Br)OCCOCCOCCO2	-7	-0.4	-10	-5	-24*	-14*	1.7*	-4	i	4.8
O=C(NNC(=O)c1ccco1)Nc1ccccc1	-2	-0.8	-1	-22	2	8	-2.2	40	i	2.1
COc1ccccc1Cn1c(=S)[nH]c2cc(C(=O)N3CCN(C)CC3)ccc2c1=O	2	6.8	4	-2	14	6	0.8	47	i	1.2
Cn1c(-c2sccc2OCc2cccc(C(F)(F)F)c2)n[nH]c1=S	8	-4.4	19	8	-31	-48	-7.2	2	i	-0.6
SMILES	Beta apoptosis	MLL AF4-AF9 inh	T cruzi repl	Calb FLC	rRNA inh HTS	rRNA inh HTS OD600	rRNA inh HTS RFP	ALR H2O2 inh	FGF22 binding	RanGTP-Impb inh
CCCc1nc2n[nH]c(N)c2c2c1CCCC2	-2	.	9	-4	.	.	.	2	.	-3.7
Cc1c(NC(=O)c2ccc3c(c2)C(=O)N(Cc2ccco2)C3=O)cccc1C(=O)O	.	-0.3	-3	11	10	-2	-3.0	-4	i	1.1
O=c1oc2ccccc2c(O)c1/C=N/c1ccccn1	-11	.	-10	1	.	.	.	7	.	-1.8
Cc1ccc(OCC(=O)N/N=C2/SCC(=O)N2Cc2ccccc2)cc1	-6	0.5	2	-2	.	.	.	-3	i	-0.2
Cc1cc(C)cc(NC(=O)CCc2c(C)nn(-c3ccc(N4CCOCC4)nn3)c2C)c1	.	-0.7	-9	2	0	12	0.9	-2	i	1.4
COCCNC(=O)C(=O)N/N=C(\C)CC(=O)Nc1ccc2c(c1)OCO2	-1	-0.6	6	-7	33	26	2.2	4	i	-0.8
O=C(COC(=O)CNC(=O)c1ccccc1F)Nc1ccc2[nH]c(=O)[nH]c2c1	.	4.4	-5	-3	-1	7	-2.0	-1	i	-4.4
CC1(C)Cc2c(sc3nc(-c4ccccc4)oc(=O)c23)CO1	-3	.	-9	15	.	.	.	-7	.	-1.6
Cc1ccc(S(=O)(=O)N(C)S(=O)(=O)c2ccc(C#N)cc2)cc1	-9	.	-1	2	.	.	.	-6	.	3.9
CC(=O)N1CCN(C(=O)c2ccc(NS(=O)(=O)c3ccc4c(c3)OCCO4)cc2)CC1	-7	-5.4	-10	4	6	18	-3.3	-8	i	6.0
C=CCn1c(=NC(=O)CN2C(=O)CCC2=O)sc2cc(S(N)(=O)=O)ccc21	-3	.	-25	-9	.	.	.	98*	.	1.5
COc1ccc(C(C(=O)NC2CCCCC2)N(C(=O)c2sc(C)nc2C)c2ccc(C(C)=O)cc2)cc1 (stereo not drawn)	-15	.	-9	31	.	.	.	0	.	0.7
O=C(Nc1ncccc1O)c1ccc(S(=O)(=O)N2CCCCCC2)cc1	.	1.4	-16	-8	1	4	0.5	-12	i	?
NNC(=O)Cn1nnc(-c2ccc(C(F)(F)F)cc2)n1	0	-2.8	20	-10	-9	-2	-5.4	-3	i	-1.0
Cc1cccc(OCCn2c(S(=O)(=O)O)nc3ccccc32)c1	-7	-0.7	-17	-8	-16	-10	-3.3	5	i	-1.6
COc1ccccc1Nc1c2c(nc3ccccc13)CCC2	14	1.1	7	38	4	1	-1.7	99*	i	-2.9
COC(=O)c1ccc(CSc2nnc(C)n2N)o1	1	0.4	-2	-11	20	6	-5.3	-6	i	-3.2
COc1cccc(N2CC(NS(=O)(=O)c3cccs3)CC2=O)c1 (stereo not drawn)	-2	-0.4	2	2	0	6	-0.8	-3	i	5.1
CC(=O)C[C@H](O)CC(=O)[C@H]1OC(=O)CC/C=C\Cc2ccccc21	-2	-1.7	.	.	-9	0	-7.7	2	i	.
O=C(CCNC(=O)c1ccco1)NCc1ccccc1	0	.	-4	6	.	.	.	-3	.	-3.8
Cc1cc(NC(=O)CSC2=Nc3ccccc3C3=NC(Cc4ccccc4)C(=O)N23)n[nH]1 (stereo not drawn)	-21	.	-9	4	.	.	.	-8	.	-1.3
CCN(Cc1ccccc1)C(=O)c1cc(COc2c(F)cccc2F)on1	1	-44	16	0	1	7	12	-22	i	-1.4
CC(C)(C)C1CCc2onc(C(=O)N3CCOCC3)c2C1 (stereo not drawn)	-5	.	-3	5	.	.	.	-2	.	-1.6
CCn1c2ccccc2c2cc(NC(=O)c3cc(OC)c(OC)c(OC)c3)ccc21	.	-52	57*	14	-10	-5	-0.7	-3	i	5.8
COc1nc(OC)nc(N2CCC(C(=O)NC3CCCCCC3)CC2)n1	-13	.	2	-5	.	.	.	3	.	0.4
SMILES	Beta apoptosis	MLL AF4-AF9 inh	T cruzi repl	Calb FLC	rRNA inh HTS	rRNA inh HTS OD600	rRNA inh HTS RFP	ALR H2O2 inh	FGF22 binding	RanGTP-Impb inh
O=C(Nc1ncc(Cc2ccc(C(F)(F)F)cc2)s1)c1ccc(-c2cccc([N+](=O)[O-])c2)o1	7	.	36	1	.	.	.	-2	.	-1.2
Nc1nc(-c2nonc2N)no1	2	-2.8	1	14	11	25	4.1	-17	i	-0.1
COc1ccc(C2(C)NC(=O)N(CC(=O)Nc3cccnc3Cl)C2=O)cc1 (stereo not drawn)	.	-1.2	-12	-10	2	9	-1.0	-26	i	-1.5
CC(Sc1nc2nn(-c3ccccc3)c(=O)c-2c2n1CCCCC2)C(N)=O (stereo not drawn)	4	.	6	34	.	.	.	.	.	0.0
CCOC(=O)c1c(C)[nH]c(C(=O)N/N=C/c2cc([N+](=O)[O-])ccc2O)c1C	35	21	-7	2	2	5	-3.6	-5	i	6.4
O=C(Nc1ccccc1O)c1ccc2c(c1)C(=O)N(c1ccccc1)C2=O	.	2.0	1	-2	3	17	4.5	-9	i	5.9
C/C(=N\O)c1ccc2c3ccccc3n(C)c2c1	-8	.	17	-1	.	.	.	-5	.	0.7
COC(=O)CCC(=O)Nc1ccccc1C(=O)Nc1ccccc1	0	.	0	-1	.	.	.	-2	.	-0.8
CCn1c(SCC(=O)Nc2ccccc2N2CCOCC2)nnc1-c1ccccc1O	1	.	20	-3	.	.	.	-4	.	-0.5
Cc1cc2nnc(SCC(=O)NCc3cccs3)n2c(N)n1	1	.	-7	-1	.	.	.	-12	.	-1.0
CCOC(=O)c1c(NC(=O)COc2ncnc3sccc23)sc2c1CCC2	3	.	11	5	.	.	.	-5	.	1.6
O=C(CNC1CCCCC1)Nc1cccc([N+](=O)[O-])c1	-1	3.2	2	-10	4	-2	3.8	0	i	1.0
CC(C)C(C)N(Cc1cccc(C(=O)O)c1)C(=O)c1ccc2ccccc2n1 (stereo not drawn)	2	-1.2	-9	11	-1	-4	-1.0	-5	i	4.0
COc1ccccc1C(=O)NC(=S)Nc1ccccc1N1CCCC1	.	-0.1	15	13	-1	4	2.3	8	i	3.8
CCOc1cccc(CNc2ccc(O)cc2)c1OCc1ccc(Cl)cc1	18	.	-5	-2	.	.	.	28	.	3.1
CCOC(=O)C1C(=O)N(O)CC1c1cccc(Oc2ccccc2)c1 (stereo not drawn)	-4	-2.6	-1	0	-4	-25	-4.3	9	i	-0.2
Cc1noc(/C=C/c2ccco2)c1S(=O)(=O)N1CCC(C(=O)NC(C)c2ccccc2)CC1 (stereo not drawn)	-11	-0.6	-11	1	8	19	1.5	13	i	-2.5

An excerpt. The share of hits here may be higher or lower than overall.
